Insulin prom inh = TRM-6 insulin promoter activity inhibition | inhibition, % at 2 µM | 130,000 compounds, 0.9% hits | TRM-6 cells (human fetal islet line), insulin promoter-eGFP reporter, imaging; reporter expression induced with tamoxifen | AID 1273;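 active = inhibition above the mean plus 3 SD, with well images judged a real hit on visual review, cut at about 60% in these data, passing the limit was not always enough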
RGS16-Gao = modulates binding between human RGS16 and Galphao | O15492+P09471 | bead-based flow cytometry RGS16-Galphao binding, fluorescence; actives lie on both sides | binding response (% of control), % at 10 µM | 220,000 compounds, 0.38% hits | AID 1441;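 active = below 25% or above 175%, edge rows of some plates excepted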;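 note: Galphao activated by GDP with aluminum fluoride before binding; 100% = wells without compound and 0% = beads without RGS; some results beyond the cut were filed as inactive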
HSV replic up = HSV replication enhancement; HSV replication augmentation in cells, fold increase; maximum fold increase; 220,000 compounds, 0.005% hits;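 active = peak rise of 1.5-fold or more in the series; tested in PC3 cells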;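 note: first round at 10 µM; read as green reporter fluorescence; hits show the peak of a series up to 25 µM; 1 = signal of infected wells without compound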
GALR2 ag = GALR2 (human) receptor agonism; O43603; GALR2-expressing cells, agonist activation read-out; AID 803; 140,000 compounds, 0.48% hits; activation, %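 (tested at 5 µM)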;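 active = above mean plus 3 SD of all compounds, about 5% in these data, not always enough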;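 note: 0% = vehicle buffer wells and 100% = reference agonist at full effect; tested in CHO reporter cells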
PKD1 kinase inh = PKD1 (human) kinase inhibition | PKD1 kinase fluorescence polarization assay | inhibition, %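 (about 10 µM by stock and volumes)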 | 200,000 compounds, 0.056% hits | AID 797;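 active = inhibition of 50% or more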;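 note: controls were vehicle for no effect and a reference inhibitor for full effect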
Target sequence (Q15139 whole entry, looked up): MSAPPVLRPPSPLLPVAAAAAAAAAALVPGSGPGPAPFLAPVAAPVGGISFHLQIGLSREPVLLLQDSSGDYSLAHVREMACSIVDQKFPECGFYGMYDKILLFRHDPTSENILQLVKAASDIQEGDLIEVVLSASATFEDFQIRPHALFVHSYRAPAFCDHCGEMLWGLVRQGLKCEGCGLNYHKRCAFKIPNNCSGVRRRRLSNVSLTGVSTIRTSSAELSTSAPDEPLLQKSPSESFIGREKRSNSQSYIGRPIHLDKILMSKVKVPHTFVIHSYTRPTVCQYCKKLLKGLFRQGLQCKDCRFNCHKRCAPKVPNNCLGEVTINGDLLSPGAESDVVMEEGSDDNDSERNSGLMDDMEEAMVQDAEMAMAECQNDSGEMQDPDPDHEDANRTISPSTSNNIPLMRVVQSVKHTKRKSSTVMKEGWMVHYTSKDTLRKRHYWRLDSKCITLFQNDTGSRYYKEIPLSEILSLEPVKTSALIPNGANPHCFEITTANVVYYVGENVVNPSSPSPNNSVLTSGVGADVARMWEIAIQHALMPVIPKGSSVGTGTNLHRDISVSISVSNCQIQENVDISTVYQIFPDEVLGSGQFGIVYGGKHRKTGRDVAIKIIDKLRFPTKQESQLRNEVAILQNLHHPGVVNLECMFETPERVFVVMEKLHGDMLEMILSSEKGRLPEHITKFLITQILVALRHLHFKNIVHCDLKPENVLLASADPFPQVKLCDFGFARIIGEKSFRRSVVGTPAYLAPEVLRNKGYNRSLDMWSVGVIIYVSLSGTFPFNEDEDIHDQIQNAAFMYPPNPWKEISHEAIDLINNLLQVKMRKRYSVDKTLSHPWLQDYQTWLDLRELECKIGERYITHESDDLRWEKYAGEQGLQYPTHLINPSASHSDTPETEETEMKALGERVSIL
Insulin prom inh cell count = recorded beside Insulin prom inh, whose call it bears; normalized cell count, %; measured here: cell count, toxicity; reference of the scale not given here;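 cells exposed to compound for 48 h; stained nuclei by imaging scaled within each plate; lower means fewer cells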
HSV replic up primary fold = also measured in HSV replic up; calls as there; fold increase; compound at 10 µM; measured here: primary screen fold increase 10 uM; tested in PC3 cells;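 GFP signal in the first replicate; 1 = infected wells without compound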
* hit, by the source's call; i = inactive; . = not tested or not shown. Hits appear at their usual frequency; about 1.3% have a hit in one of these screens.

smiles,Insulin prom inh,Insulin prom inh cell count,RGS16-Gao,HSV replic up,HSV replic up primary fold,GALR2 ag,PKD1 kinase inh
COCCCn1c(SCC(=O)Nc2sc3c(c2C#N)CCCC3)nnc1-c1ccncc1,-235,65,97,i,1.1,-0.7,-8
COc1ccc(CCNC(=O)c2nonc2N)cc1,29,116,110,i,0.91,-0.7,-1
Cc1ccc(NC(=O)CSc2ccc(-c3ccco3)nn2)cc1,-15,85,93,.,.,.,-6
CSc1ccccc1NC(=O)Cc1ccccc1,20,85,100,i,1.1,.,-4
Cc1cc(C)cc(C(=O)Nc2nnc(SCC(=O)N3CCCc4ccccc43)s2)c1,.,.,103,i,0.98,0.4,-8
NNC(=O)COc1ccc(C2SCCS2)cc1,.,.,100,i,1.1,.,-1
CCCc1cc(=O)[nH]c(SCC(=O)Nc2ccccc2C#N)n1,38,43,93,i,0.93,-1.9,-6
Cc1ccc(Nc2nc(N)c([N+](=O)[O-])c(NCc3ccco3)n2)cc1C,4,57,103,i,0.92,0.5,-3
COCCCN(C(=O)Cn1ncc2c(=O)oc3ccc(C)cc3c21)C(C)c1ccncc1 (stereo not given),.,.,99,i,1,0.0,-5
OCCNCc1cccc(Br)c1,.,.,102,i,0.89,.,4
CCNC(=S)NNC(=O)c1csc(C(C)C)c1,34,152,52,i,0.88,-1.5,3
CCOc1ccccc1NC(=O)c1cccc(NC(=O)c2ccco2)c1,-13,11,83,i,0.76,-2.5,-16
CCOc1cc(C=O)cc(Br)c1OCC(=O)NCCc1ccccc1,.,.,99,i,0.99,.,9
Cc1ccc2c(c1)c1c(n2C)-c2[nH]ncc2CC1,53,79,143,i,0.9,-1.7,-7
CCc1cccc2c(SC(C)C(=O)NCC3CCCO3)nc(-c3ccccc3)nc12 (stereo not given),4,104,98,i,0.88,-1.5,10
Clc1ccc(COc2cccc(CNCc3ccncc3)c2)cc1,.,.,98,i,1,.,2
COc1ccc(OC)c(C(c2nnnn2CCc2ccccc2)N2CCN(c3ccccc3)CC2)c1 (stereo not given),.,.,102,i,0.9,-1.7,1
CC(C)(C)c1[nH]nc2c1C(c1ccc(OC(=O)c3ccco3)cc1)C(C#N)=C(N)O2 (stereo not given),.,.,108,i,0.92,-0.4,11
CC(=O)c1cccc(N=C2NC(=O)CS2)c1,-7,69,97,i,1,-0.3,-1
O=C(Cn1ncc(Cl)c(Cl)c1=O)NCC1CCCCC1,-212,6,103,i,0.58,0.6,-3
O=c1c2c3c(sc2ncn1Cc1ccc(F)cc1)CCC3,15,125,100,i,0.91,-2.0,-6
Nc1cc(CN2C(=O)c3ccccc3C2=O)cc(Cl)c1O,-144,90,106,i,0.65,-0.7,-1
O=C(Nc1c(C(=O)O)[nH]c2ccccc12)NC1CCCCC1,11,156,94,i,0.95,-1.7,-5
CCOC(=O)C1=C(N)OC2=C(C(=O)CC(C)C2)C1c1cccnc1 (stereo not given),25,116,99,i,0.94,-1.5,2
C=CCSc1nc(=O)n2ccccc2n1,.,.,99,i,1,.,-7
COC(=O)c1cccc(NC(=O)Nc2ccc(Cl)cc2Cl)c1,.,.,106,i,1.1,.,.
COc1ccccc1CNC(=O)COC(=O)c1cnccn1,-9,101,103,i,0.96,-0.1,-17
CC(C)OC(=O)Nc1ccc2c(c1)N(C(=O)CCN1CCN(CCO)CC1)c1ccccc1CC2,18,71,101,i,1.1,.,-3
CC(C)(C)NC(=O)C(=O)NCc1ccccn1,.,.,99,i,0.96,.,-4
Cc1ccc(-c2nc(NCc3ccco3)n(C(=O)c3ccco3)n2)cc1,.,.,102,i,0.99,.,1
Cn1cnnc1SCC(=O)c1c(N)n(Cc2ccccc2)c(=O)n(C)c1=O,.,.,101,i,0.95,.,-5
CC(=O)Nc1ccc(N/C=C(\C=O)c2nc3ccccc3o2)cc1,-28,28,102,i,1,.,2
Cc1ccc2ccc(C(Nc3ccccn3)c3ccccc3)c(O)c2n1 (stereo not given),.,.,114,i,0.82,-3.0,1
COc1ccccc1-c1ccc(SCc2cccc(F)c2)nn1,.,.,98,i,1,.,-2
Cc1ccc(NCc2n[nH]c(=S)n2-c2ccccc2)c(C)c1,.,.,94,i,0.95,.,-6
CCCCn1c(N)c(N(CCC(C)C)C(=O)CSc2nnc(Nc3ccccc3)s2)c(=O)[nH]c1=O,-8,135,106,i,0.85,.,0
Cc1cc(C)n(CCNC(=O)c2cc(COc3ccc4ncccc4c3)on2)n1,.,.,101,i,1,.,.
CCCCn1c(SCC(=O)N2CCCc3ccccc32)nc2c1c(=O)n(C)c(=O)n2C,19,123,95,i,1.1,-1.7,-18
Cn1c(C(=O)OCC(=O)NCc2ccco2)cc2sccc21,15,69,111,i,0.85,-0.1,-4
COC(=O)N/N=C1\CCCc2ccccc21,6,96,104,i,0.92,-2.1,-8
O=c1[nH]c(CN2CCN(S(=O)(=O)c3ccc(Cl)cc3)CC2)nc2cc(Cl)ccc12,.,.,102,i,0.94,1.6,-4
Cc1cc(C)n2[nH]c(=O)c(N=Nc3ccc(S(N)(=O)=O)cc3)c2n1,.,.,102,i,0.97,.,-9
COc1ccc(NC(=O)CSc2n[nH]c(C)c2[N+](=O)[O-])cc1,64,38,107,i,0.99,.,-4
CCCn1c(SCC(=O)Nc2cccc(C)n2)nnc1C(C)C,.,.,109,i,0.98,.,3
Cc1ccccc1OCC(=O)Nc1ccc(N2CCN(C(=O)C(C)C)CC2)c(Cl)c1,.,.,95,i,1,-1.9,-13
Cc1ccc(C(=O)N/C(=C/C=C\c2ccccc2)C(=O)NCc2ccco2)cc1,37,97,104,i,0.97,-0.6,-17
O=C(CCS(=O)(=O)c1cccc2nonc12)NC1CCCCCC1,.,.,95,i,0.85,-0.4,-6
CCCCN(C(=O)c1cc(OC)c(OC)c(OC)c1)C1=CC2CCC(C1)N2C (stereo not given),.,.,100,i,0.86,-1.0,-6
COc1ccc(NC(=O)CCC(=O)N/N=C/c2ccncc2)cc1,.,.,99,i,1.2,.,.
Cn1cccc1/C=N/n1c(-c2ccc(Cl)cc2)n[nH]c1=S,48,70,94,i,0.92,-2.8,-5

Random excerpt: 3 compounds from above
smiles,Insulin prom inh,Insulin prom inh cell count,RGS16-Gao,HSV replic up,HSV replic up primary fold,GALR2 ag,PKD1 kinase inh
CC(C)OC(=O)Nc1ccc2c(c1)N(C(=O)CCN1CCN(CCO)CC1)c1ccccc1CC2,18,71,101,i,1.1,.,-3
O=C(CCS(=O)(=O)c1cccc2nonc12)NC1CCCCCC1,.,.,95,i,0.85,-0.4,-6
NNC(=O)COc1ccc(C2SCCS2)cc1,.,.,100,i,1.1,.,-1

Carrying on.
smiles,Insulin prom inh,Insulin prom inh cell count,RGS16-Gao,HSV replic up,HSV replic up primary fold,GALR2 ag,PKD1 kinase inh
Cc1n[nH]c(C)c1CCC(=O)N/N=C/c1c(C)[nH]c2ccccc12,.,.,111,i,0.78,.,.
CCn1c(CCNC(=O)c2ccc(C)cc2)n[nH]c1=S,-31,86,100,i,0.94,-1.4,-9
COc1ccc(S(=O)(=O)N(C)CC(=O)NCc2cccnc2)cc1Cl,-7,127,102,i,0.83,-3.6,2
COc1ccc2c(Cl)c(C(=O)OCC(=O)c3ccc4c(c3)NC(=O)CO4)sc2c1Cl,.,.,101,i,1,.,.
Cc1cc(=O)n2c(C(=O)Nc3ccc(C(=O)OC(C)C)cc3)c(C(=O)Nc3ccccc3)sc2n1,.,.,84,i,0.69,.,-4
O=C(Oc1c(-c2ccccc2Cl)oc2ccccc2c1=O)c1ccc(Cl)cc1,-74,145,107,i,1,-0.7,-7
O=S(=O)(c1cccc(F)c1)N1CCC(CO)(Cc2cccc(F)c2)CC1,.,.,109,i,0.96,.,7
CCN(CC)c1ccc(NC(=O)Cn2c(C(C)NC(=O)c3ccccc3)nc3ccccc32)cc1 (stereo not given),.,.,97,i,0.91,11*,-16
CCOC(=O)C1=C(C)NC(C)=C(C(=O)OCC)C1C(=O)OCC(=O)N1CCc2ccccc2C1,.,.,97,i,0.92,0.0,-5
O=C(CC1c2ccccc2Oc2ccccc21)NCc1ccco1,.,.,103,i,0.99,-0.7,-11
C=CCN(CC=C)CCCOc1ccccc1C(=O)OC,.,.,107,i,0.96,.,-7
C/C(Cc1ccccc1)=N\NC(=O)CNC(=O)COc1ccccc1,.,.,114,i,1.1,.,.
CC(C)CNc1c(N)c(=O)oc2ccccc12,12,140,99,i,0.9,-4.8,-6
CCCCNS(=O)(=O)c1ccc(NC(=O)C2c3ccccc3Oc3ccccc32)cc1,.,.,100,i,0.85,0.4,0
Cc1cccc(NC(=O)c2ccccc2OCC(=O)N2CCCC2)c1C,.,.,100,i,1.1,.,-4
CN1CCN(C2=NC3(CCCC3)C(C#N)C(=O)N2)CC1 (stereo not given),.,.,100,i,1,-2.5,-4
O=[N+]([O-])c1ccc(Oc2c(F)c(F)nc(N3CCCC3)c2F)cc1,67,86,105,.,.,-2.3,5
Cc1ccc2nc(C)c3c(c2c1)COC3,31,107,79,i,0.91,-0.4,10
CC(C)(C)NC(=O)NC(=O)CSc1n[nH]c(-c2ccccc2Br)n1,-93,55,108,.,.,.,-1
Clc1cccc2sc(N3CCCC3)nc12,6,173,89,i,0.98,-1.8,-1
Fc1ccc(-c2nnsc2Sc2ccccn2)cc1,.,.,99,i,0.91,.,-2
C#CCNC(=O)C1=C[C@H](C2CCCCC2)[C@@H](CCCO)[C@H](OCC)O1,.,.,41,i,1,.,11
CC1CN(Cc2ccccc2Cl)CC(C)O1 (stereo not given),14,100,104,i,0.76,-0.5,2
Cn1c(CSc2nc3ccccc3s2)nnc1SCC(=O)NCCCN1CCOCC1,-453,71,99,i,1,-2.8,-6
CCOC(=O)/C(C#N)=C1\CCCN1CC(N)=S,.,.,101,i,0.95,-1.2,7
COC(=O)c1ccc(Oc2ccc3nncn3n2)cc1,15,111,88,i,1,-0.8,4
CC(=O)Nc1ccc(S(=O)(=O)N(C)CC(=O)OCC(=O)Nc2ccc3c(c2)OCO3)cc1,10,111,109,i,1,-1.2,-4
Cc1ccc(/C=C(/NC(=O)c2ccccc2)C(=O)NCCc2c[nH]c3ccccc23)o1,.,.,46,i,0.93,-0.1,-6
COc1ccc(C(=O)NCC(=O)OCc2ccc([N+](=O)[O-])cc2)cc1,-19,134,100,i,0.93,.,-2
CCOC(=O)/C(C#N)=N/Nc1ccccc1OC,-50,37,20*,i,1.1,-0.5,-12
N[C@@H](Cc1cc(I)c(O)c(I)c1)C(=O)O,29,90,104,i,1.1,-1.8,0
COc1ccc(NC(=O)CN(C)S(=O)(=O)c2ccc3c(c2)CCC(=O)N3)c(OC)c1,.,.,124,i,0.98,-3.7,-1
C/C(=N\N=C(/N)SC1CC(=O)N(c2ccc(Cl)c(Cl)c2)C1=O)c1cccs1 (stereo not given),.,.,94,i,0.85,-1.9,-5
Cc1nn(-c2ccccc2)c(Cl)c1/C=C1\N=C(c2ccccc2)OC1=O,-357,63,.,.,.,-1.9,0
CCC(=O)Nc1cc(C(C)C)c(O)cc1C,70,93,88,i,1,-2.1,-10
